High-throughput results as filed in PubChem.
Arbovirus anti = blocks arbovirus infection; inhibition, % at 10 µM; arbovirus infection cell-based antiviral screen; 0.37% of 200,000 active; AID 1251;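 active = inhibition from about 30%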;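 also: bluetongue infection of BSR cells; cell survival read as ATP light after 72 h; 0% = infected wells without compound and 100% = uninfected wells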
RecA splice inh = Mtb RecA intein splicing inhibition. cell-free RecA intein splicing, fluorescence. inhibition, %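 (about 9 µM by stock and volumes)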. 0.75% of 290,000 active; in the data active = inhibition above about 30%; inconclusive = no clear call, values can overlap the other calls;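 also: 0% = vehicle wells and 100% = reference inhibitor control wells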
Target sequence (P9WHJ3 whole entry, looked up, canonical isoform): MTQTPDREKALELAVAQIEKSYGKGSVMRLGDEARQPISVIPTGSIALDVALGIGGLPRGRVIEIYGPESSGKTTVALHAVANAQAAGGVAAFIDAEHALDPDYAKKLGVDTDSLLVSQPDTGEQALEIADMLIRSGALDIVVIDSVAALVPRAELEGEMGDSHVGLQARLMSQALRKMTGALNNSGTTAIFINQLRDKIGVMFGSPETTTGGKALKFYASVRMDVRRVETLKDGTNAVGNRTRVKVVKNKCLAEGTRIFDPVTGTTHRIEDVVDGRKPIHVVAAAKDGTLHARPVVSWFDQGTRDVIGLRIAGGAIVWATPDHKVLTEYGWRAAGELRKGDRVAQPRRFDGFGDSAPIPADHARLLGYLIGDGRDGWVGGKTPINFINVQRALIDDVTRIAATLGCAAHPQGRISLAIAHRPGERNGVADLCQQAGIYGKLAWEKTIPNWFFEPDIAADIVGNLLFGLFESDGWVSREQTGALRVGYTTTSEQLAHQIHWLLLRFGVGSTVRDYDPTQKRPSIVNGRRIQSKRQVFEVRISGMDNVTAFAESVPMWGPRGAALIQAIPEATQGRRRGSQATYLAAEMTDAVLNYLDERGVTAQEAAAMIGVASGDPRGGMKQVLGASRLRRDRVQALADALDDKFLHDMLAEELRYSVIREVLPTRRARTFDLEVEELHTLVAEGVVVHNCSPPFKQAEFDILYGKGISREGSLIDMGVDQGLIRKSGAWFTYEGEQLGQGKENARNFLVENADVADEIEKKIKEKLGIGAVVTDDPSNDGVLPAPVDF
YopH inh = inhibitors of Yersinia enterocolitica YopH tyrosine phosphatase. fluorescence Ex485/Em525. inhibition, %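 (about 10 µM by stock and volumes)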. 0.16% of 140,000 active;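 active = inhibition of 50% or more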;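 also: controls were vehicle for no effect and minimum signal wells for full effect; inactives centre near -20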
Mtb H37Rv = M. tuberculosis H37Rv growth inhibitors, H37Rv strain (AID 1626). M. tuberculosis H37Rv growth inhibition; higher % means a stronger effect. inhibition, % at 10 µM; hits with a dose series show IC50 in µM. 0.95% of 220,000 active;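 active = confirmed in a dose series; inconclusive = inhibition above 80% but not taken into the dose series; inactive = below 80% or under 30% at every dose of the series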;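 also: bacteria incubated seven days before Alamar blue readout; 0% = bacteria only wells and 100% = bacteria with antibiotic wells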
Mtb bLac sens = beta-lactam sensitization of Mtb H37Rv. AID 434955. M. tuberculosis H37Rv growth with meropenem, percent inhibition; hits of this screen are not shown here. inhibition, % at 25 µM. 0.27% of 330,000 active;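 active = about 74% or more and at least 40 points above the plate without the antibiotic, then above 30% in a dose series; inconclusive = first-round hits that could not be retested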;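 also: growth measured after seven days incubation then overnight dye step; 0% = bacteria only wells and 100% = bacteria with antibiotic; twin plates without the antibiotic show which effects depend on it; some results filed as inactive read as strong as hits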
* marks the source's active call; other numbers are inactive results; ? = inconclusive; . = not tested or not shown. This is a subset; count on the stated rates, not on these rows.

smiles | Arbovirus anti | RecA splice inh | YopH inh | Mtb H37Rv | Mtb bLac sens
CC1CCCCC12NC(=O)N(CC(=O)NCCc1ccccn1)C2=O (centres undefined) | -1 | 0.3 | -30 | -2% | -24
NC(=O)c1sc2cc(C(F)(F)F)cnc2c1-c1cccs1 | -1 | -6.9 | -13 | -6% | -2
Cc1cc(OCC(=O)NCc2ccncc2)c2c3c(c(=O)oc2c1)CCC3 | . | -0.8 | . | . | 4
CC(=O)Nc1ccc(N=Cc2c(O)ccc3ccccc23)cc1 | . | -1.8 | . | . | 4
CC1=NN(C(C#N)c2ccccc2)C(c2ccccc2)C1 (centres undefined) | . | -3.1 | . | 0% | 3
O=C(CCCn1c(=O)c2sccc2n(CC(=O)NCc2ccco2)c1=O)NCc1ccco1 | -4 | 0.9 | -17 | 0% | 0
O=C(CCCN1C(=O)c2ccccc2C1=O)Nc1c(C(=O)C2CC2)oc2ccccc12 | -1 | -0.6 | -57 | 1% | -5
COc1ccc(C(c2nnnn2Cc2cccs2)N2CCN(c3ccc(F)cc3)CC2)cc1OC (centres undefined) | -2 | 7.6 | -42 | . | 0
CCN(C(=O)COC(=O)c1cc(=O)c2ccccc2o1)c1c(N)n(Cc2ccccc2)c(=O)[nH]c1=O | . | -3.4 | . | . | -9
COC(=O)c1ccc(CSc2nc3ccccc3c(=O)n2N)cc1 | . | 0.1 | . | . | 41
CCN1C(=O)N(S(=O)(=O)c2ccc(C)cc2)[C@@H](c2ccccc2)C(C(=O)OC)=C1C | . | -53 | . | . | -13
C/C(=N\NC(=O)CSc1ncccn1)c1ccc2c(c1)OCCO2 | -2 | 0.9 | . | -11% | -3
Cc1nn(C)cc1NC(=O)CC12CC3CC(CC(C3)C1)C2 | 3 | -0.9 | -1 | 9% | -4
O=C(O)CNC1=NCCCCC1 | 3 | -1.5 | -40 | -12% | 9
CN1CCc2c(sc3c2C(=O)NC(/C=C\c2ccccc2)N3)C1 (centres undefined) | . | -45 | . | . | -9
CSc1ccccc1C(=O)Nc1cc(C)ccc1C | -4 | 0.9 | . | 7% | 99
OC1(c2cccc(C(F)(F)F)c2)CCN(c2ncnc3c2[nH]c2ccc(F)cc23)CC1 | -30 | . | 0 | . | .
COCCNC(=O)/C(C#N)=c1\s/c(=C\c2ccccc2OC(F)F)c(=O)n1Cc1ccccc1 | -2 | -0.9 | . | -4% | 2
CCOC(=O)C1(Cc2ccc(O)cc2)NC(c2ccco2)C2C(=O)N(c3ccccc3F)C(=O)C21 (centres undefined) | 5 | -2.9 | 24 | 4% | 3
S=C(NCc1ccccc1)NCc1cccc(Cl)c1 | . | 6.5 | . | . | 5
Cn1c(N)c(C(=O)NCc2ccccc2Cl)sc1=S | 1 | 0.3 | -41 | 5% | -4
O=C(Nc1nccs1)c1ccc2c(c1)OCO2 | . | -0.3 | . | . | 2
Cc1cc(NC(=O)COc2cccnc2[N+](=O)[O-])no1 | 3 | 1.1 | . | 1% | -6
C=CCn1c(COc2ccc(F)cc2)nnc1SCC(=O)Nc1cccc(S(N)(=O)=O)c1 | 0 | . | . | -6% | 2
Cc1onc(-c2c(F)cccc2Cl)c1C(=O)N1CCSCC1 | . | -0.5 | . | -5% | 6
Cc1ccccc1NC(=O)CN(C)S(=O)(=O)c1ccc(-c2ccc(=O)[nH]n2)s1 | . | -0.4 | . | . | -8
CN(C)CCNc1c2c(nc3ccccc13)CCC2 | . | -0.5 | . | . | 0
O=C(NC1CCCCC1)C(c1ccncc1)N(C(=O)c1csnn1)c1cccc(F)c1 (centres undefined) | . | -4.7 | . | . | 1
O=C(COCC(=O)N/N=C/c1ccc(F)cc1)N/N=C/c1ccc(F)cc1 | -2 | -1.2 | -25 | 1% | -3
COc1ccccc1NC(=O)NCC1CC1(Cl)Cl (centres undefined) | . | 1.6 | . | . | 0
Cc1ccc(C(=O)CSC2=C(C#N)C(c3ccco3)C3=C(CC(C)(C)CC3=O)N2)cc1 (centres undefined) | 2 | 1.8 | -20 | -13% | -5
CCOc1cc(N2CCOCC2)c(OCC)cc1NC(=O)COc1ccc2ccc(=O)oc2c1 | -13 | -0.3 | -25 | 5% | ?
O=C(O)c1ccccc1-c1cc2ccccc2[nH]1 | . | 2.1 | . | . | 11
O=C(Nc1ccc2c(c1)CCC2)c1cccc(S(=O)(=O)N2CCN(c3ccccc3)CC2)c1 | 6 | -8.1 | -13 | 9% | 2
CCCCC(=O)C1CCN(Cc2ccccc2)CC1 | -2 | -2.8 | -19 | 3% | -6
CCC(C)NS(=O)(=O)c1ccc(NC(C)=O)cc1 (centres undefined) | 5 | 0.0 | -3 | -1% | 0
O=C1C2C(C(=O)N1/N=C/c1ccc(N3CCCCC3)o1)C1C=CC2C12CC2 (centres undefined) | -11 | -4.5 | -11 | 9% | 4
COc1cccc(CSc2nccn2C)c1 | . | -0.7 | . | . | -5
Cc1ccccc1-c1nc(CS(=O)CC(=O)N2CCC3(CC2)OCCO3)c(C)o1 (centres undefined) | 2 | -0.1 | -21 | -3% | 0
c1csc(CNCc2ccncc2)c1 | 3 | 2.1 | . | 3% | -1
Cc1cccc(NC(=O)COc2nsnc2N2CCOCC2)c1 | 2 | -3.8 | -31 | 8% | -3
CCCCNC(=S)N/N=C/c1ccc(OCC(=O)Nc2c(C)cc(C)cc2C)c(OC)c1 | 6 | -3.7 | -9 | 5% | 26
CCOC(=O)C1=C(C)N(CCCCCC(=O)O)C(=O)NC1c1ccccc1Cl (centres undefined) | 25 | -1.0 | -10 | -9% | -7
Cc1ccc(N(CC(O)CON=C2c3ccccc3-c3ccccc32)S(C)(=O)=O)cc1 (centres undefined) | -4 | -0.8 | -1 | 13% | 6
O=C(Nc1nc(-c2ccccn2)cs1)c1ccc(Br)s1 | -21 | -8.5 | -20 | <0.2µM* | 87

Part of the list above, as labelled records:
Cc1ccc(C(=O)CSC2=C(C#N)C(c3ccco3)C3=C(CC(C)(C)CC3=O)N2)cc1 (centres undefined)
  Arbovirus anti: 2	RecA splice inh: 1.8	YopH inh: -20	Mtb H37Rv: -13%	Mtb bLac sens: -5

CCCCNC(=S)N/N=C/c1ccc(OCC(=O)Nc2c(C)cc(C)cc2C)c(OC)c1
  Arbovirus anti: 6	RecA splice inh: -3.7	YopH inh: -9	Mtb H37Rv: 5%	Mtb bLac sens: 26

c1csc(CNCc2ccncc2)c1
  Arbovirus anti: 3	RecA splice inh: 2.1	YopH inh: .	Mtb H37Rv: 3%	Mtb bLac sens: -1

CCC(C)NS(=O)(=O)c1ccc(NC(C)=O)cc1 (centres undefined)
  Arbovirus anti: 5	RecA splice inh: 0.0	YopH inh: -3	Mtb H37Rv: -1%	Mtb bLac sens: 0

Continued.
smiles | Arbovirus anti | RecA splice inh | YopH inh | Mtb H37Rv | Mtb bLac sens
CCCN(CCC)CCCNC(=O)c1cn(CC)c2ccc(S(=O)(=O)N(C)C3CCCCC3)cc2c1=O | . | -0.6 | . | . | 0
Cc1nc(C)c(C(=O)C2=C(O)C(=O)N(CCN3CCOCC3)C2c2ccco2)s1 (centres undefined) | 1 | -2.9 | -3 | -6% | 1
CN(C)c1ccc(C2CC(c3ccccc3)=Nc3nc(-c4ccccc4)cn32)cc1 (centres undefined) | -8 | . | -17 | 17% | .
O=c1[nH]c(N2CCc3ccccc32)nc2c1CCCC2 | 9 | 0.8 | -12 | 6% | 7
CC(=O)C1CCCN(C(=O)c2ccc3nc(Cc4cccc(Cl)c4)oc3c2)C1 (centres undefined) | . | 1.5 | . | . | 1
S=c1[nH]nc(Nc2ccccc2)s1 | 7 | -12 | . | -1% | 0
CCOC(=O)C1CCN(C(=O)CCn2c(=O)[nH]c3ccsc3c2=O)CC1 | 2 | . | -37 | 0% | -1
CC(C)NC(=O)CN(C(=O)CCC(=O)Nc1ccccn1)c1ccc(F)c(Cl)c1 | -1 | 0.1 | -46 | -6% | -9
COc1ccccc1CNc1ccc2nnc(CCNC(=O)c3ccc(C)cc3)n2n1 | -5 | -2.0 | . | -5% | 83
Cc1ccc(-c2n[nH]c(=S)n2/N=C/c2cccn2C)cc1 | -2 | -1.3 | -24 | . | -10
CCC(=O)Nc1c(C)c(CC)nc2ccccc12 | 3 | 0.7 | -28 | 3% | -6
COc1cc(C=O)ccc1OCCCOc1ccccc1C(=O)O | 7 | 0.2 | -52 | 0% | -2
CCSc1nnc(NC(=O)CSC2=NCCS2)s1 | 1 | 11 | . | . | -4
Cc1ccc(C(=O)OC(C)CN2CCOCC2)cc1 (centres undefined) | 15 | 0.7 | . | 0% | 1
Cc1cc(O)c(Sc2ccccc2)c(=O)o1 | . | -1.8 | . | . | -8
CC(Sc1nc2ccccc2s1)C(=O)NCc1ccc2c(c1)OCO2 (centres undefined) | -10 | -2.4 | -32 | 9% | 5
COc1ccc(-c2c(C)nn(Cc3ccccc3)c2N)cc1 | -5 | 1.4 | 15 | -5% | 19
CCOC(=O)c1c(NC(=O)CN2CCCc3ccccc32)sc(C)c1CC | 3 | 7.9 | -20 | 16% | 4
CCc1nc(SCc2ccccc2C)n[nH]1 | . | -1.6 | . | . | -10
O=C(CCCN1C(=O)C(c2ccccc2)Oc2cccnc21)NCc1ccccc1Cl (centres undefined) | . | -2.1 | . | . | 6
COc1ccc(C(=O)NC(C)(C)C)cc1S(=O)(=O)N1CCCC1 | 3 | 0.7 | -9 | -7% | -4
CN(CC(=O)Nc1ccccc1Br)C(=O)CNC(=O)c1ccco1 | . | -0.8 | . | . | 5
CC(=O)c1cccc(CN2CCN(CC(C)C)C(CCO)C2)c1 (centres undefined) | -2 | -0.1 | . | -5% | -12
Cc1ccc(C(=O)NC2CC3CCC(C2)N3Cc2ccco2)cc1 (centres undefined) | 2 | 0.7 | -35 | -9% | -1
O=C(Nc1cccc(S(=O)(=O)N2CCOCC2)c1)c1cn(-c2ccccc2)nc1-c1ccccc1 | -6 | 1.6 | -26 | 3% | 0
COc1ccc(CN2CC(C(=O)NCCCN3CCOCC3)CC2=O)cc1 (centres undefined) | 0 | 2.1 | -39 | -6% | -18
COc1ccc(S(=O)Cc2ccc(C(=O)N3CCN(C(=O)c4ccco4)CC3)o2)cc1 (centres undefined) | . | 3.8 | . | . | -14
O=S(=O)(Nc1cccnc1)c1cccc(Cl)c1 | -2 | -3.1 | -21 | -8% | -2
CN1CCC(N(C)S(=O)(=O)c2ccc(C(C)(C)C)cc2)CC1 | . | 0.9 | . | . | 5
CN(Cc1ccccc1)CC(O)COc1ccc(CNCc2nccn2C)cc1 (centres undefined) | -11 | 5.2 | . | 2% | -4

Continued; it opens with the 4 that closed the last part.
smiles | Arbovirus anti | RecA splice inh | YopH inh | Mtb H37Rv | Mtb bLac sens
COc1ccc(S(=O)Cc2ccc(C(=O)N3CCN(C(=O)c4ccco4)CC3)o2)cc1 (centres undefined) | . | 3.8 | . | . | -14
O=S(=O)(Nc1cccnc1)c1cccc(Cl)c1 | -2 | -3.1 | -21 | -8% | -2
CN1CCC(N(C)S(=O)(=O)c2ccc(C(C)(C)C)cc2)CC1 | . | 0.9 | . | . | 5
CN(Cc1ccccc1)CC(O)COc1ccc(CNCc2nccn2C)cc1 (centres undefined) | -11 | 5.2 | . | 2% | -4
Cc1nc2ccccc2c(=O)n1NC(=O)c1ccccc1[N+](=O)[O-] | 25 | 1.2 | . | -10% | -6
c1ccc2c(CN3CCCCC3)c[nH]c2c1 | . | -2.8 | . | 10% | -5
COc1ccc(N(C(=O)c2ccco2)S(=O)(=O)c2cc(Cl)c(Cl)cc2Cl)cc1 | -25 | 24 | -6 | -5% | -6
O=C(CNC(=O)c1ccco1)N=Nc1c(O)n(CCc2ccccc2)c2ccccc12 | . | 3.6 | . | 1% | 7
O=C(CSC1=NS(=O)(=O)c2ccccc2N1)Nc1cccc(F)c1 | . | -1.2 | . | . | -1

As entered above.
c1ccc2c(CN3CCCCC3)c[nH]c2c1 in Mtb H37Rv → 10%
O=C(CSC1=NS(=O)(=O)c2ccccc2N1)Nc1cccc(F)c1 in RecA splice inh → -1.2
COc1ccc(N(C(=O)c2ccco2)S(=O)(=O)c2cc(Cl)c(Cl)cc2Cl)cc1 in RecA splice inh → 24

Ordered by heavy-atom count (lowest first): some entries from above.
smiles | Arbovirus anti | RecA splice inh | YopH inh | Mtb H37Rv | Mtb bLac sens
Cc1nc2ccccc2c(=O)n1NC(=O)c1ccccc1[N+](=O)[O-] | 25 | 1.2 | . | -10% | -6
COc1ccc(N(C(=O)c2ccco2)S(=O)(=O)c2cc(Cl)c(Cl)cc2Cl)cc1 | -25 | 24 | -6 | -5% | -6
CN(Cc1ccccc1)CC(O)COc1ccc(CNCc2nccn2C)cc1 (centres undefined) | -11 | 5.2 | . | 2% | -4
O=C(CNC(=O)c1ccco1)N=Nc1c(O)n(CCc2ccccc2)c2ccccc12 | . | 3.6 | . | 1% | 7
